# NOMO-1 viab: STK33 inhibitor candidate reducing NOMO-1 cell viability; AID 2330; 37,000 compounds, 7.5% hits; inhibition, % (test concentration not listed); NOMO-1 AML viability, CellTiter-Glo luminescence, 72 h;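 active means most replicates above 80%; inconclusive means exactly half above 80%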;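 further: wells of about 30 µL received 25 nL stock; 0% = median of vehicle wells and 100% = reference inhibitor level; the first replicate is given; inactives centre near 10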
# Starred values were filed as active, the others as inactive; ? = inconclusive. Not all compounds are listed; count on the stated rates, not on these rows.
SMILES,NOMO-1 viab
Cc1ccc(S(=O)(=O)N(C)C[C@H]2Oc3c(NC(=O)CCCCCC(=O)Nc4ccccc4N)cccc3C(=O)N([C@H](C)CO)C[C@@H]2C)cc1,?
CCc1nc(SCC(=O)Nc2c(C)cc(C)cc2[N+](=O)[O-])n[nH]1,-17
Cc1ccc(S(=O)(=O)N(C)C[C@@H]2Oc3ccc(NS(C)(=O)=O)cc3CC(=O)N([C@H](C)CO)C[C@@H]2C)cc1,2
CC(C)NC(=O)Nc1ccc2c(c1)CC(=O)N([C@H](C)CO)C[C@@H](C)[C@H](CN(C)C(=O)NC(C)C)O2,1
Cc1ccc(C(=O)N(Cc2nc(-c3ccc(Cl)cc3)no2)C(C)C)cc1[N+](=O)[O-],12
COc1cc(OC)c(C2=NOC(C(=O)Nc3cc(C)nn3-c3ccccc3)C2)cc1Cl (stereo unspecified),18
C[C@H]1CN([C@@H](C)CO)C(=O)c2cccc(NC(=O)Nc3ccccc3)c2O[C@@H]1CN(C)Cc1ccc(Oc2ccccc2)cc1,60
CCOC(=O)c1c(C)oc2ccc(OCc3cccc([N+](=O)[O-])c3)cc12,10
COc1ccc2ccc(=O)oc2c1CC(O)C(C)(C)O (stereo unspecified),1
C[C@@H]1CN([C@@H](C)CO)C(=O)c2cccc(NC(=O)C3CC3)c2O[C@H]1CN(C)CC1CCCCC1,46
C[C@H]1CN([C@@H](C)CO)C(=O)c2cc(N(C)C)ccc2O[C@@H]1CN(C)S(C)(=O)=O,12
C[C@@H]1CN([C@@H](C)CO)C(=O)c2cc(NS(=O)(=O)c3ccc(Cl)cc3)ccc2O[C@@H]1CN(C)C(=O)Nc1ccc2c(c1)OCO2,2
C[C@H]1CN([C@@H](C)CO)C(=O)c2cc(NC(=O)c3ccncc3)ccc2O[C@H]1CN(C)Cc1ccc(Oc2ccccc2)cc1,22
COc1ccc(NC(=O)Nc2cccc3c2O[C@H](CN(C)S(=O)(=O)c2ccc(F)cc2)[C@@H](C)CN([C@H](C)CO)C3=O)cc1,19
C[C@H]1CN([C@@H](C)CO)C(=O)c2cc(NC(=O)C3CCCCC3)ccc2O[C@H]1CN(C)S(=O)(=O)c1ccc(Cl)cc1,11
COCc1nc2ccccc2n1CCOc1ccc(Cl)cc1,43
O=C(O)CCCC(=O)Nc1ccc(N2CCOCC2)c(C(=O)O)c1,-10
COc1cc(OC)cc(-c2nnc(SCC(=O)Nc3sc4c(c3C#N)CCC(C(C)(C)C)C4)o2)c1 (stereo unspecified),1
C[C@@H]1CN([C@H](C)CO)C(=O)Cc2cc(NC(=O)c3ccncc3)ccc2O[C@@H]1CN(C)S(=O)(=O)c1cccs1,16
C[C@@H]1CN([C@@H](C)CO)C(=O)c2cc(NS(=O)(=O)c3ccc(F)cc3)ccc2O[C@@H]1CN(C)Cc1ccc(C(=O)Nc2ccccc2N)cc1,110*
C[C@H]1CN([C@@H](C)CO)C(=O)Cc2cc(NC(=O)Cc3cn(C)c4ccccc34)ccc2O[C@@H]1CN(C)Cc1ccc(C(=O)O)cc1,16
Cc1ccc(S(=O)(=O)Nc2cccc3c2O[C@@H](CN(C)Cc2ccc(C(=O)Nc4ccccc4N)cc2)[C@H](C)CN([C@@H](C)CO)C3=O)cc1,?
C[C@@H]1CN([C@H](C)CO)C(=O)c2cc(NC(=O)Nc3ccc4c(c3)OCO4)ccc2O[C@H]1CN(C)S(=O)(=O)c1cn(C)cn1,3
COc1cc(-c2nc3ccccc3s2)cc(Br)c1OCC(N)=O,-16
C[C@H]1CN([C@@H](C)CO)C(=O)c2cccc(NC(=O)c3ccc(-c4nccs4)cc3)c2O[C@@H]1CN(C)Cc1ccc(C(=O)Nc2ccccc2N)cc1,124*
Cc1noc(C)c1NC(=O)Nc1cccc2c1O[C@H](CN(C)S(=O)(=O)c1cccs1)[C@H](C)CN([C@@H](C)CO)C2=O,15
CN(CC(=O)Nc1ccc(Cl)cc1C(F)(F)F)S(=O)(=O)c1ccc(Cl)cc1,16
C[C@@H]1CN([C@@H](C)CO)C(=O)c2cccc(NC(=O)c3nc4ccccc4s3)c2O[C@@H]1CN(C)C(=O)NC1CCCCC1,?
C[C@@H]1CN([C@H](C)CO)C(=O)Cc2cc(NC(=O)Cc3ccccc3)ccc2O[C@@H]1CN(C)C(=O)Nc1ccc(C(F)(F)F)cc1,-22
Cc1cc(C(=O)Nc2cccc3c2O[C@@H](CN(C)C(=O)Nc2ccc(C(F)(F)F)cc2)[C@@H](C)CN([C@@H](C)CO)C3=O)n(C)n1,12
O=C(O)CCCC(=O)Nc1ccc([N+](=O)[O-])cc1,18
Cc1ccccc1NC(=O)CSCCO,12
C[C@@H]1CCCCO[C@@H](CN(C)Cc2ccc(C(=O)Nc3ccccc3N)cc2)[C@@H](C)CN([C@H](C)CO)C(=O)c2cc(NC(=O)Nc3ccc4c(c3)OCO4)ccc2O1,44
C[C@H](CO)N1C[C@H](C)[C@@H](CN(C)C(=O)Nc2ccc3c(c2)OCO3)Oc2ccc(NC(=O)C3CCCCC3)cc2C1=O,4
O=C(CSc1nc2scc(-c3ccco3)c2c(=O)n1-c1ccccc1)N1CCOCC1,29
C[C@@H]1CN([C@H](C)CO)C(=O)Cc2cc(NC(=O)Nc3ccccc3)ccc2O[C@@H]1CN(C)Cc1ccc(Oc2ccccc2)cc1,115*
C[C@H]1CN([C@@H](C)CO)C(=O)Cc2cc(NC(=O)Nc3ccc(C(F)(F)F)cc3)ccc2O[C@@H]1CN(C)Cc1ccc(C(=O)O)cc1,0
Cc1ccc(C)c(NC(=O)Cn2cc([N+](=O)[O-])cn2)c1,39
CC1CCCC(C)N1C(=S)NCCCN1CCOCC1 (stereo unspecified),110*
COc1ccc(NC(=O)CCN2C(=O)c3ccccc3C2=O)cc1Cl,4

# Quoted at random: 3 records from the list.
SMILES,NOMO-1 viab
O=C(O)CCCC(=O)Nc1ccc([N+](=O)[O-])cc1,18
C[C@@H]1CN([C@@H](C)CO)C(=O)c2cc(NS(=O)(=O)c3ccc(Cl)cc3)ccc2O[C@@H]1CN(C)C(=O)Nc1ccc2c(c1)OCO2,2
Cc1cc(C(=O)Nc2cccc3c2O[C@@H](CN(C)C(=O)Nc2ccc(C(F)(F)F)cc2)[C@@H](C)CN([C@@H](C)CO)C3=O)n(C)n1,12

# Later entries.
SMILES,NOMO-1 viab
Cc1ccc(S(=O)(=O)N(C)C[C@H]2Oc3c(NS(=O)(=O)c4ccccc4)cccc3C(=O)N([C@H](C)CO)C[C@H]2C)cc1,14
NC(=O)CC1C(=O)N(c2ccc(Cl)cc2)C(=S)N1Cc1cccnc1 (stereo unspecified),21
O=S(=O)(NCCO)c1cccc2cccnc12,21
O=C(COc1ccccc1[N+](=O)[O-])Nc1ccc2oc(-c3cccc4ccccc34)nc2c1,19
C[C@H]1CN([C@@H](C)CO)C(=O)c2cccc(NC(=O)Nc3ccc(C(F)(F)F)cc3)c2O[C@@H]1CN(C)C(=O)Nc1ccc2c(c1)OCO2,96*
CC(C)NC(=O)Nc1ccc2c(c1)C(=O)N([C@H](C)CO)C[C@H](C)[C@H](CN(C)C(=O)CCC(F)(F)F)OCCCC[C@@H](C)O2,2
C[C@@H]1CCCCO[C@H](CN(C)Cc2ccc3c(c2)OCO3)[C@@H](C)CN([C@H](C)CO)C(=O)c2cc(NC(=O)c3ccncc3)ccc2O1,5
COc1ccc(CN(C)C[C@@H]2Oc3ccc(NC(=O)CCCCCC(=O)Nc4ccccc4N)cc3CC(=O)N([C@H](C)CO)C[C@H]2C)cc1,42
C[C@@H]1CCCCO[C@H](CN(C)S(C)(=O)=O)[C@@H](C)CN([C@H](C)CO)C(=O)c2cc(NC(=O)Cc3ccccc3)ccc2O1,-23
C[C@@H]1CCCCO[C@@H](CN(C)C(=O)Nc2ccc3c(c2)OCO3)[C@@H](C)CN([C@H](C)CO)C(=O)c2cc(NS(C)(=O)=O)ccc2O1,27
COc1cccc(NC(=O)CN(c2cc(Cl)c(Cl)cc2Cl)S(C)(=O)=O)c1,40
CS(=O)(=O)N(CC(=O)Nc1c(F)cccc1F)c1ccc(Br)cc1,22
C[C@@H]1CN([C@H](C)CO)C(=O)c2cccc(NC(=O)C3CCOCC3)c2O[C@@H]1CN(C)S(=O)(=O)c1cccs1,10
C[C@@H]1CN([C@@H](C)CO)C(=O)c2cc(NC(=O)Cc3cn(C)c4ccccc34)ccc2O[C@@H]1CN(C)C(=O)Nc1ccccc1,30
CCOc1ccc(NC(=O)C(C)Sc2nnnn2-c2ccccc2)cc1 (stereo unspecified),23
Clc1ccc2ncnc(NCc3ccc4c(c3)OCO4)c2c1,83*
CC1(C)NC(=O)N(CCCOc2ccccc2CO)C1=O,29
COc1ccc(CN(C)C[C@@H]2Oc3ccc(NS(=O)(=O)c4cn(C)cn4)cc3CC(=O)N([C@H](C)CO)C[C@H]2C)cc1,-7
CNC[C@H]1Oc2c(NC(=O)Nc3ccccc3)cccc2C(=O)N([C@H](C)CO)C[C@H]1C,30
CCc1cc2c(=O)n(CC(=O)Nc3ccccc3OC)cnc2s1,-29
Cc1ccc(S(=O)(=O)N(C)C[C@@H]2Oc3ccc(NC(=O)NC4CCCCC4)cc3CC(=O)N([C@H](C)CO)C[C@@H]2C)cc1,124*
Cc1noc(C)c1NC(=O)Nc1ccc2c(c1)C(=O)N([C@H](C)CO)C[C@H](C)[C@H](CN(C)CC1CCCCC1)OCCCC[C@@H](C)O2,23
COc1ccc(S(=O)(=O)NCc2cccnc2)c(C)c1C,15
COC(=O)[C@@H]1OC(=O)C2OC23[C@@]1(C)CCC1[C@]2(C)C(C[C@@H](O)[C@]13C)C(C)(C)[C@H](OC(C)=O)C[C@@H]2OC(C)=O (stereo partly specified),-18
C[C@@H]1CN([C@@H](C)CO)C(=O)Cc2cc(NC(=O)C3CC3)ccc2O[C@@H]1CN(C)Cc1ccc(C(=O)Nc2ccccc2N)cc1,82*
COc1ccc(CN(C)C[C@@H]2Oc3ccc(NC(=O)NC4CCCCC4)cc3C(=O)N([C@H](C)CO)C[C@H]2C)cc1,4
Cc1ccc(S(=O)(=O)N(C)C[C@H]2Oc3c(NC(=O)Nc4ccc5c(c4)OCO5)cccc3C(=O)N([C@H](C)CO)C[C@@H]2C)cc1,13
COc1cccc(NC(=O)c2cnccc2C(F)(F)F)c1,1
COc1ccccc1NC(=O)C1=C(C)Nc2ncnn2C1c1ccncc1 (stereo unspecified),31
Cc1sc2ncnc(SCC(=O)NCC3CCCO3)c2c1-c1ccc(Cl)cc1 (stereo unspecified),18

# 3 of the compounds above, tab-delimited:
structure	NOMO-1 viab
Cc1ccc(S(=O)(=O)N(C)C[C@H]2Oc3c(NC(=O)Nc4ccc5c(c4)OCO5)cccc3C(=O)N([C@H](C)CO)C[C@@H]2C)cc1	13
C[C@@H]1CN([C@@H](C)CO)C(=O)Cc2cc(NC(=O)C3CC3)ccc2O[C@@H]1CN(C)Cc1ccc(C(=O)Nc2ccccc2N)cc1	82*
COc1cccc(NC(=O)c2cnccc2C(F)(F)F)c1	1

# Continued:
SMILES,NOMO-1 viab
CC1(C)CC(N(Cc2cccs2)C(=O)c2ccco2)CCO1 (stereo unspecified),21
C[C@H]1CN([C@@H](C)CO)C(=O)c2cccc(NC(=O)C3CCOCC3)c2O[C@@H]1CN(C)C(=O)Nc1cccc2ccccc12,-2
COc1ccc(NC(=O)CSc2nc3c(cc2C#N)CCCCC3)cc1,10
COc1ccc(S(=O)(=O)N(C)C[C@H]2Oc3ccc(NC(=O)NC(C)C)cc3C(=O)N([C@@H](C)CO)C[C@H]2C)cc1,-9
CC(C)NC(=O)N(C)C[C@H]1Oc2ccc(NC(=O)CCCCCC(=O)Nc3ccccc3N)cc2CC(=O)N([C@@H](C)CO)C[C@H]1C,7
CSc1nnc(C(C)(C)C)c(=O)n1/N=C/c1c(O)ccc2ccccc12,60
COC(=O)c1ccc(NC(=O)CSc2ncn(-c3ccccc3)n2)cc1,22
O=C1c2ccccc2C(=O)N1OS(=O)(=O)c1cccc2cccnc12,127*
CC(C)NC(=O)N(C)C[C@@H]1Oc2ccc(NC(=O)Nc3ccccc3)cc2C(=O)N([C@@H](C)CO)C[C@H]1C,10
COc1ccc(S(=O)(=O)Nc2ccc3c(c2)C(=O)N([C@H](C)CO)C[C@H](C)[C@H](CN(C)Cc2ccc(Cl)c(Cl)c2)O3)cc1,73

# Two successive entries already listed, quoted:
SMILES,NOMO-1 viab
CC1(C)CC(N(Cc2cccs2)C(=O)c2ccco2)CCO1 (stereo unspecified),21
C[C@H]1CN([C@@H](C)CO)C(=O)c2cccc(NC(=O)C3CCOCC3)c2O[C@@H]1CN(C)C(=O)Nc1cccc2ccccc12,-2

# Continued:
SMILES,NOMO-1 viab
O=C(NC(=S)Nc1ccccc1-c1nc2ccccc2s1)c1ccco1,15
O=C(O)C1CC=C(Cl)CC1C(=O)Nc1ccc(Br)cc1 (stereo unspecified),-19
COc1ccc(C(=O)CSc2ncnc3sc4c(c23)CCCC4)cc1,27
COc1ccc(S(=O)(=O)Nc2ccc3c(c2)C(=O)N([C@H](C)CO)C[C@H](C)[C@H](CN(C)C(=O)c2ccncc2)OCCCC[C@@H](C)O3)cc1,30
C[C@@H]1CN([C@H](C)CO)C(=O)c2cc(NC(=O)C3CCCCC3)ccc2O[C@@H]1CN(C)S(=O)(=O)c1ccc(F)cc1,0
O=C(O)c1ccc2c(c1)OCO2,-19
COc1ccc(S(=O)(=O)Nc2ccc3c(c2)C(=O)N([C@H](C)CO)C[C@H](C)[C@H](CN(C)CC2CCCCC2)O3)cc1,1
O=c1[nH]c2ccccc2c(=O)n1CCSc1ccccc1,12
C[C@H](CO)N1C[C@H](C)[C@@H](CN(C)C(=O)Nc2ccccc2)Oc2c(NC(=O)Nc3ccccc3)cccc2C1=O,61
C[C@H](CO)N1C[C@H](C)[C@H](CN(C)C(=O)Nc2ccc(C(F)(F)F)cc2)Oc2ccc(NC(=O)C3CCCCC3)cc2CC1=O,26

# Screens: PubChem, Broad Institute
